# GALR2 ag = GALR2 (human) receptor agonism | GALR2-expressing cells, agonist activation read-out | activation, %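 (tested at 5 µM)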 | actives 0.48% (n = 140,000) | AID 803;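 active = above mean plus 3 SD of all compounds, about 5% in these data, not always enough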;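 note: 0% = vehicle buffer wells and 100% = reference agonist at full effect; tested in CHO reporter cells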
# Target sequence (O43603 whole entry, looked up): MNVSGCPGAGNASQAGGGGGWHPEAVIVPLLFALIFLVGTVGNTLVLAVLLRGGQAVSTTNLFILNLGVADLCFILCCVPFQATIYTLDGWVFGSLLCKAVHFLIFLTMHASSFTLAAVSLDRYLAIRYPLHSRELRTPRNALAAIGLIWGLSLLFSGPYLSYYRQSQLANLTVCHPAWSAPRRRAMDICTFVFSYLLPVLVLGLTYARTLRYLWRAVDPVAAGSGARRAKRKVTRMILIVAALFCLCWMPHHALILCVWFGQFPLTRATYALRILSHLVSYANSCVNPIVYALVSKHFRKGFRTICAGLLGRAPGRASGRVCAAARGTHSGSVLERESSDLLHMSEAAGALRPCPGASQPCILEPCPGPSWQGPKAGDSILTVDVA
# PKD1 kinase inh = inhibitors of human PKD1 kinase. PKD1 kinase fluorescence polarization assay. actives 0.056% (n = 200,000). inhibition, %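 (about 10 µM by stock and volumes)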. Q15139;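 active = inhibition of 50% or more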;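 note: controls were vehicle for no effect and a reference inhibitor for full effect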
# INS promoter inh = TRM-6 insulin promoter activity inhibition; AID 1273; actives 0.9% (n = 130,000); inhibition, % at 2 µM; TRM-6 cells (human fetal islet line), insulin promoter-eGFP reporter, imaging; reporter expression induced with tamoxifen;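 active = inhibition above the mean plus 3 SD, with well images judged a real hit on visual review, cut at about 60% in these data, passing the limit was not always enough; inconclusive = inhibition over the cutoff but images rejected on review; inactive = inhibition not above the cutoff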
# RGS16-Gao = RGS16-Galphao interaction regulator (human). O15492+P09471. binding response (% of control), % at 10 µM. AID 1441. actives 0.38% (n = 220,000). bead-based flow cytometry RGS16-Galphao binding, fluorescence; actives lie on both sides;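 active = below 25% or above 175%, edge rows of some plates excepted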;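 note: Galphao activated by GDP with aluminum fluoride before binding; 100% = wells without compound and 0% = beads without RGS; some results beyond the cut were filed as inactive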
# Target sequence (O15492 whole entry, looked up): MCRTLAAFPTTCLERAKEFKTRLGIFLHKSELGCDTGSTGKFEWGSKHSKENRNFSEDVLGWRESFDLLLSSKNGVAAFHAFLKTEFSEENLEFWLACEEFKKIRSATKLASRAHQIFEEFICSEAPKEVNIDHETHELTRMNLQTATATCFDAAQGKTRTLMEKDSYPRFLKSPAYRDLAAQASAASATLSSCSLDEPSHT
# Target sequence (P09471 whole entry, looked up): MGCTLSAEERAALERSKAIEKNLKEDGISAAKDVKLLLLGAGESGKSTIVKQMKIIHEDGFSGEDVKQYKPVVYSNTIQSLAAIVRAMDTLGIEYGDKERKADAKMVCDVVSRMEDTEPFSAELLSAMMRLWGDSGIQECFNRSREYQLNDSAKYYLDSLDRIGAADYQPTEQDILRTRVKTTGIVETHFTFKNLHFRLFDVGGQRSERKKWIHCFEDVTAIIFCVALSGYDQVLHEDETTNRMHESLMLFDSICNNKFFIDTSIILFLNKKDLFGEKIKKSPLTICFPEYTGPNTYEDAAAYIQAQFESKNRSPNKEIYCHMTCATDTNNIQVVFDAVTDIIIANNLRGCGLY
# HSV augment = increases HSV replication in cells | HSV replication augmentation in cells, fold increase | maximum fold increase | actives 0.005% (n = 220,000);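 active = peak rise of 1.5-fold or more in the series; inconclusive = self-fluorescent or not available for retest; tested in PC3 cells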;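 note: first round at 10 µM; read as green reporter fluorescence; hits show the peak of a series up to 25 µM; 1 = signal of infected wells without compound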
# INS promoter inh cell count = further read-out of INS promoter inh, marked with its call; normalized cell count, %; measured here: cell count, toxicity; reference of the scale not given here;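 cells exposed to compound for 48 h; stained nuclei by imaging scaled within each plate; lower means fewer cells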
# HSV augment primary fold = further read-out of HSV augment, marked with its call; fold increase; compound at 10 µM; measured here: primary screen fold increase 10 uM; tested in PC3 cells;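 GFP signal in the first replicate; 1 = infected wells without compound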
# Active calls of the source: *; i = inactive; ? = inconclusive; / = not tested or not shown.
SMILES,GALR2 ag,PKD1 kinase inh,INS promoter inh,INS promoter inh cell count,RGS16-Gao,HSV augment,HSV augment primary fold
COc1ccc(N2CC(C(=O)N/N=C/c3ccccc3)CC2=O)cc1 (centres undefined),/,4.9,/,/,102.4,i,1.11
COc1cc2c(=O)n(Cc3ccco3)c(=O)n(CC(=O)c3cccc(Br)c3)c2cc1OC,-1.3,-7.1,-31.6,99.4,69.0,i,0.57
CCN(CC)S(=O)(=O)c1ccc2c(c1)nc(SCc1nc3ccsc3c(=O)[nH]1)n2CC,-0.1,-12.3,/,/,100.5,i,0.94
COC(=O)COc1ccc2occ(C(C)=O)c2c1,-0.3,-1.4,-57.1,133.8,114.4,i,0.77
O=S1(=O)CC(O)C(N2CCC(c3ccccc3)CC2)C1 (centres undefined),-1.3,-14.8,-59.3,94.6,105.1,i,0.71
O=C(COC(=O)c1ccc(S(=O)(=O)NCc2ccco2)cc1)Nc1ccccc1OC(F)F,-0.6,-3.8,/,/,116.2,i,1.21
CCOc1ccccc1N/C=C(\C#N)c1nc2ccccc2n1C,0.1,2.9,72.4*,101.2*,104.4,i,0.84
O=C(COc1nc2ccccc2nc1N1CCOCC1)NCC(F)(F)F,-1.1,-0.1,17.6,49.7,54.4,i,1.04
CC(C)C(C)(C#N)NC(=O)CSc1nncn1-c1ccccc1 (centres undefined),/,-7.7,7.1,91.1,104.9,i,0.97
Cc1oc(-c2ccccc2F)nc1CN1CCC(C(=O)NCc2cccs2)CC1,-1.0,4.5,/,/,101.4,i,0.91
CCOc1ccc2c(c1)nc(SCC(=O)c1cccs1)n2C,-5.2,0.6,-10.8,150.0,101.9,/,/
C=CCn1c(=O)c2ccccc2n2c(SCc3nnc(-c4ccccc4Br)o3)nnc12,-0.1,-7.0,/,/,94.8,i,1.04
O=C(NC(=S)Nc1ccc(S(=O)(=O)Nc2nccs2)cc1)c1ccccc1,0.7,-5.9,/,/,130.7,i,1.02
CCc1cccc2c(-c3csc(=NC)n3C)c[nH]c12,/,-6.4,18.2,63.4,122.5,i,0.96
CCOC(=O)Cc1csc(NC(=O)COc2ccccc2OC)n1,-1.6,-0.4,-28.6,194.8,103.2,i,0.96
O=C1CC(C(=O)Nc2ncccn2)C(c2ccccc2)O1 (centres undefined),-1.5,-7.4,37.5,97.1,91.9,i,0.97
O=C(NCCN1CCOCC1)C1CCC(CNS(=O)(=O)c2ccc(Cl)cc2)CC1 (centres undefined),-1.7,-7.1,0.0,131.9,103.9,i,0.8
C=CCNC(=S)Nc1sc2c(c1C(=O)OCC)CC(C(C)C)OC2 (centres undefined),0.6,-6.4,22.9,53.4,104.6,i,0.75
COC(=O)CCC(=O)OC1(C)C(=O)C=C2C=C(C3CC3)N(C3CC3)C=C2C1=O (centres undefined),/,/,/,/,99.8,i,0.93
CSc1nsc(/C=C/Nc2ccc(Cl)cc2)c1C#N,0.7,-14.3,-53.3,84.9,103.4,?,/
CN(C)/C=C(\C#N)C(=O)c1cccc(Oc2ccc(Br)cc2)c1,-3.2,0.0,18.6,94.2,107.0,i,0.76
COc1ccc2cc(C(=O)C3CCCN(Cc4cnc(C)s4)C3)ccc2c1 (centres undefined),/,-0.9,/,/,86.1,i,0.9
CCCCCc1nc2ccccc2c(=O)n1NC(=O)c1c(O)c2cccc3c2n(c1=O)CCC3,-2.0,-5.1,-312.5,71.6,/,/,/
Cc1ccc(-c2noc(C3CCCN(S(=O)(=O)c4ccc5ccccc5c4)C3)n2)o1 (centres undefined),-3.7,-2.2,31.2,105.0,95.5,i,0.99
O=c1[nH]c(=O)n(Cc2ccco2)c2c1C(C(F)(F)F)(C(F)(F)F)N=C(c1ccco1)N2,-1.2,-7.6,/,/,99.8,i,1.11
CCN(CC)c1cc(C)c2cc(NC(=O)c3cccs3)ccc2n1,/,-7.0,-28.6,132.9,104.1,i,0.74
Cc1nc(-c2noc(-c3ccc(Cl)cc3)n2)c(C(F)(F)F)o1,/,/,/,/,100.5,i,1.24
CCOC(=O)c1c(NC(=O)CSc2nnc(-c3cccnc3)o2)sc(C)c1C,-1.0,-2.4,-31.6,62.5,107.8,i,1
CN(C)S(=O)(=O)c1cccc(C(=O)NCCc2ccccc2)c1,-2.7,1.5,7.7,159.6,53.9,i,0.9
CCOc1ccc(CCNS(=O)(=O)c2cnc[nH]2)cc1OCC,-0.3,-9.4,-11.1,70.6,102.5,i,1.06
Cn1cc(/C=C2\SC(=S)N(N3CCOCC3)C2=O)c2ccccc21,/,/,/,/,103.9,i,0.93
O=C(NC(=S)Nc1ccc(F)c([N+](=O)[O-])c1)c1ccccc1F,/,-1.8,/,/,100.4,i,0.95
Cc1cc(-c2c(C)[nH]n(-c3ccc(Cl)cc3)c2=O)n[nH]1,-0.9,-4.3,-13.3,177.4,98.2,i,1.13
COc1ccccc1/C=C/C(=O)Nc1ccc2c(c1)OCCO2,-1.1,-0.3,17.2,109.9,94.9,i,0.66
N#CC(Sc1ccccn1)c1ccc(Cl)cc1Cl (centres undefined),/,0.1,-46.1,86.6,106.9,i,0.99
CCn1c(CSc2nnc(-c3ccncc3)n2C)nc2cc(C(=O)O)ccc21,/,/,/,/,103.4,i,0.88
CCc1ccccc1NC(=S)N(CCN(C)C)C(C)c1ccccn1 (centres undefined),1.6,4.7,-7.1,79.0,99.8,i,0.83
NC(=O)Cn1nc([N+](=O)[O-])nc1Oc1ccccc1C(=O)N1CCOCC1,/,-1.9,-50.0,39.5,104.3,i,0.93
COCCNC(=O)NC1(C(F)(F)F)Oc2ccc(Cl)cc2O1 (centres undefined),-1.3,-4.2,-35.7,99.7,101.9,i,0.91
COc1ccc(Cl)cc1S(=O)(=O)NCc1cccs1,-6.1,2.7,12.1,159.3,105.2,i,0.97

# An excerpt from further up, for reference:
SMILES,GALR2 ag,PKD1 kinase inh,INS promoter inh,INS promoter inh cell count,RGS16-Gao,HSV augment,HSV augment primary fold
CN(C)/C=C(\C#N)C(=O)c1cccc(Oc2ccc(Br)cc2)c1,-3.2,0.0,18.6,94.2,107.0,i,0.76
COc1ccc2cc(C(=O)C3CCCN(Cc4cnc(C)s4)C3)ccc2c1 (centres undefined),/,-0.9,/,/,86.1,i,0.9
CCCCCc1nc2ccccc2c(=O)n1NC(=O)c1c(O)c2cccc3c2n(c1=O)CCC3,-2.0,-5.1,-312.5,71.6,/,/,/

# Going on with the list:
SMILES,GALR2 ag,PKD1 kinase inh,INS promoter inh,INS promoter inh cell count,RGS16-Gao,HSV augment,HSV augment primary fold
CCOC(=O)c1ccccc1Oc1c(F)c(F)nc(NCCO)c1F,-2.0,-3.2,11.4,79.4,75.5,i,0.93
CCN(CC)S(=O)(=O)c1cccc(C(=O)NCC2CCCO2)c1 (centres undefined),-3.0,0.5,13.5,93.4,98.7,i,0.91
Cc1ccccc1N1C(=O)CSC1=C(C#N)C#N,/,-10.8,-23.8,167.1,108.6,i,0.99
CC1(NC(=O)N2CCOCC2)CCS(=O)(=O)C1 (centres undefined),-2.4,-10.8,-3.3,65.6,101.1,i,0.87
COC(C[C@H](O)C[C@@H](O)[C@H](C)OCc1ccccc1)OC,/,/,/,/,106.8,i,0.77
CCOC(=O)c1sc(NC(=O)c2cccnc2)c(C#N)c1C,-0.6,5.2,9.1,96.7,106.8,i,0.833
O=C(c1ccccc1F)N1CCN(S(=O)(=O)c2ccc(S(=O)(=O)N3CCCCC3)cc2)CC1,0.1,-13.8,-25.0,110.2,102.3,i,0.94
CCOc1ccc(C(=O)Nc2c3c(nn2-c2cccc(Cl)c2)CS(=O)C3)cc1 (centres undefined),-0.2,-1.1,-35.7,65.6,106.6,i,0.94
CCOC(=O)c1c(P(=O)(N2CCOCC2)N2CCOCC2)noc1N,-1.4,6.8,/,/,104.6,i,0.93
CCCSc1cc(=O)n(-c2ccccc2)nc1C(=O)OCC,-0.7,-5.0,21.7,126.0,102.2,i,1.07
C=CCNC(=O)c1ccc(-c2nc(-c3ccc(Cl)c(Cl)c3)cs2)cc1,-1.2,5.0,36.7,103.9,89.0,i,0.99
O=C(COC(=O)CCc1nc2ccccc2s1)Nc1cccc(S(=O)(=O)N2CCOCC2)c1,-2.3,4.0,-3.3,89.1,104.4,i,0.91
CC(C)COc1ccc(C(=O)NC(Cc2c[nH]c3ccccc23)C(=O)NN)cc1 (centres undefined),/,/,/,/,94.8,i,1.13
CN(Cc1cn[nH]c1-c1cc2ccccc2o1)CC1CCOCC1,/,6.7,/,/,89.2,i,1.05
Cc1ccc(S(=O)(=O)N2CCN(Cc3ccccn3)CC2)cc1,/,-4.8,-2.4,88.9,104.8,i,1.02
COc1ccc(C(=O)N2CCOC23CCN(c2ncccn2)CC3)cc1,/,1.7,-88.2,105.3,101.2,i,1.2
Cn1ccsc1=NC(=O)c1ccccc1F,/,-5.7,/,/,98.6,i,0.87
Cc1nn(Cc2ccccc2)c2sc(C(=O)N3CCN(Cc4ccc5c(c4)OCO5)CC3)cc12,-1.0,9.4,-64.3,31.6,97.2,i,1.01
COC(=O)c1sccc1NC(=O)c1sccc1C,-0.8,0.8,26.3,124.8,107.3,i,1.02
O=C(CN1CCN(C2CCCCC2)CC1)NCCC1=CCCCC1,-2.8,-3.9,-21.4,106.0,95.8,i,1.12
COc1ccc(NC(=O)c2ccccc2)c([N+](=O)[O-])c1,/,-1.8,/,/,95.3,i,0.92
CC(C)c1ccc(N=c2c([N+](=O)[O-])nn(-c3ccc4c(c3)OCCO4)n2O)cc1,-3.2,3.7,12.5,126.2,94.1,i,0.77
CCN(CC)S(=O)(=O)c1cc(NC(=O)c2cc(-c3ccccn3)nc3ccccc23)ccc1C,/,-0.5,/,/,91.9,i,0.73
CCO[C@H]1OC(C(N)=O)=C[C@@H](c2ccc(Br)cc2)[C@@H]1CCCO,/,-6.8,/,/,107.2,i,0.92
O=c1[nH]c(-c2cccnc2)nc2ccccc12,-2.8,-1.5,7.7,131.5,93.4,i,0.83
Cc1ccc(-c2nn(CCC(=O)O)cc2CCC(=O)O)cc1,-2.7,2.4,31.2,94.3,100.2,i,0.97
C/C(=N/OC(=O)CC(C)C)c1cc(-c2ccc(Cl)cc2)no1,/,-0.3,35.0,124.4,100.8,i,1.01
CN1C(=S)SC(N(O)C(=O)Nc2ccc(Cl)c(Cl)c2)C1(C)C (centres undefined),-4.0,6.8,-33.3,115.3,131.5,i,0.95
C=CCNc1nc(SC)nc2ccsc12,-0.2,-7.0,43.3,77.1,97.6,i,0.92
C=CCN1C(=O)/C(=C2/Sc3ccccc3N2C)SC1=Nc1ccccc1C,-1.8,6.4,35.7,52.6,102.8,i,1.02
COC(=O)CN(C#N)c1nc(SC)nc(N(C)C)n1,-2.1,-1.4,27.8,103.7,96.0,i,0.92
COc1cccc(NC2=C(C#N)C(=O)NC(c3cccc(OC)c3O)S2)c1 (centres undefined),/,/,/,/,97.5,i,0.93
C=Cn1c(C(=O)O)ccc1-c1ccc(OC)cc1,/,-6.2,38.1,192.8,110.0,i,1.08
COc1ccc2nc3sc(C(=O)NCCN4CCc5ccccc5C4)cc3cc2c1,-1.1,-8.9,-25.9,88.4,128.8,i,0.79
NCC(=O)Nc1ccc(Cl)cc1C(=O)c1ccc[nH]1,/,/,/,/,94.1,i,0.87
CN(C)C(=O)CN1C(=O)C2CC=C(Cl)CC2C1=O (centres undefined),-0.5,-6.6,/,/,101.2,/,/
CSc1cccc(NC(=O)N2CCCC(CNS(=O)(=O)Cc3ccccc3)C2)c1 (centres undefined),/,-11.6,/,/,86.1,i,0.91
O=C(CN1N=C(c2ccccc2)CCC1=O)NCc1ccco1,-0.4,-4.5,-30.2,131.5,98.6,i,1.05
CCOc1cc(CNc2nn[nH]n2)ccc1OCC(=O)NC(C)(C)C,/,-3.0,16.7,120.7,97.5,i,0.98
Cc1nc2nc[nH]n2c(=O)c1CCC(C)C,-0.2,-0.5,0.0,134.2,97.2,i,0.93
CC1Cn2c(nc3c2c(=O)[nH]c(=O)n3C)O1 (centres undefined),0.1,-4.1,-50.0,76.4,79.3,i,0.89
CCOc1ccc(-c2c(=O)n(OCc3ccccc3Br)c3ccccc3[n+]2[O-])c(OCC)c1,/,1.0,/,/,97.5,i,0.95
COC(=O)c1nn(-c2ccccc2)c(=O)cc1Oc1ccccc1,-1.9,-4.4,/,/,95.5,i,0.99
O=C(CN1NS(=O)(=O)c2ccccc2C1=O)Nc1ccccc1OC(F)F,-2.7,-7.1,2.7,123.2,11.4,i,1.01
COc1ccccc1NC(=O)CC1S/C(=N/N=C2\CCCc3ccccc32)NC1=O (centres undefined),/,5.0,/,/,102.3,i,1.18
CC(=O)OCC1(C)CN(c2ccccc2)N(C(=O)c2ccc(F)cc2)C1=O (centres undefined),/,1.0,/,/,103.3,i,1.07

# Screens deposited in PubChem by several laboratories.
